# PrP 5UTR inh: suppresses PrP 5' UTR mRNA reporter expression. AID 488862. inhibition, % (no concentration beside the values). cell-based PrP 5' UTR mRNA reporter, plate reader. hit rate 0.35% among 340,000;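 active means every replicate at 50% or more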;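 further: 0 = median of the neutral control wells; tested in H4 reporter cells; numbers are from one replicate; inactives centre near -14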
# BJeLR lethal: kills HRASV12-expressing BJeLR cells | BJeLR (HRASV12) viability, CellTiter-Glo ATP luminescence, 48 h; reference of the scale not given here | inhibition, % (no concentration beside the values) | hit rate 0.17% among 300,000 | AID 1554;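 active means replicate mean above 50%; inconclusive means above 50% but judged a plate artefact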;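 further: 50 nL library stock added to about 25 µL; numbers are from one replicate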
# Sa ugtP lethal: compounds lethal to S. aureus RN4220 ugtP deletion mutant. AID 1259309. OD600 growth, 16 h; some inactives read as strong as hits. growth inhibition, % (test concentration not listed). hit rate 0.54% among 330,000;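 active means z-score under -3 and OD600 up to 0.15 on both plates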;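 further: plate controls were untreated wells for no effect and antibiotic for full effect; wells of about 80 µL received 100 nL stock; the first replicate is given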
# Mtb hypoxia rep: inhibitors of hypoxia-regulated fluorescent reporter in Mycobacterium tuberculosis. M. tuberculosis hypoxia-regulated fluorescent reporter, fluorescence. fluorescence inhibition, % (test concentration not listed). AID 1159583. hit rate 0.1% among 300,000;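 active means 35 to 45% if threefold the growth effect, above 45% if 1.5-fold the growth effect; inactive means the rest, general growth blockers included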;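 further: wells of about 50 µL received 100 nL stock; 0% = vehicle wells and 100% = reference inhibitor wells; whole bacteria with a GFP reporter of the hypoxia response; strong numbers were not always called active; many hits fall short of the cut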
# Bead autofluor: counter-screen for toxin protease inhibitors: compound fluorescence; compound autofluorescence counterscreen, microsphere flow cytometry; active compounds read high; hit rate 3.1% among 360,000; fluorescence intensity (test concentration not listed); AID 624483;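 active means at least 3 SD above the mean of all compounds, about 16000 in these data; inconclusive means too few beads counted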;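 further: 100 nL of 1 mM stock went into each well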
# Sa RN4220 lethal: S. aureus RN4220 growth inhibition; OD600, 16 h; inhibition, % (no concentration beside the values); hit rate 0.33% among 330,000; AID 1259311;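 active means z-score of -3 or lower and OD600 up to 0.18 on both plates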;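 further: plate controls were untreated cells for no effect and reference antibiotic for full effect; stock transfer was 100 nL into about 80 µL; one replicate is shown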
# Mtb hypoxia rep growth: second read-out of Mtb hypoxia rep, no call of its own (marks repeat the call); growth inhibition, %; measured here: M. tuberculosis growth (absorbance);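 0% = vehicle and 100% = reference antibiotic; read after six days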
# Active calls of the source: *; ? = inconclusive; . = no result given.
SMILES,PrP 5UTR inh,BJeLR lethal,Sa ugtP lethal,Mtb hypoxia rep,Mtb hypoxia rep growth,Bead autofluor,Sa RN4220 lethal
C=CCCC(=O)N1CCC(Oc2cccc(C(=O)NCc3ccccn3)c2)CC1,1,-1,9,3,1,4472,3.2
COc1ccc(NC(=O)CN(C)C(=O)Cc2ccc3c(c2)CCC3)cc1,-16,-15,3,2,6,5522,0.5
CC(C)Oc1cc2ccccc2cc1CNC[C@H]1O[C@@H](n2cnc3c(N)ncnc32)[C@H](O)[C@@H]1O,-36,.,-8,-2,2,3525,1.6
O=C1CN(C(=O)c2ccco2)c2ccccc2N1,2,-5,2,.,.,4705,1.4
C=CCOc1ccccc1/C=N/NC(=O)Cc1ccccc1,-27,-8,.,.,.,4145,.
N#CCCN(C(=O)COC(=O)/C=C/c1cccs1)c1ccccc1,-9,.,2,4,5,4079,2.0
CC(=NNC(=O)c1cccc(NN=C(C)c2ccncc2)c1)c1ccncc1,.,.,64,-2,8,.,8.0
O=C(c1ccc(Nc2cccc(C(F)(F)F)c2)nc1)N1CCCC1,-16,-7,-7,7,12,12219,0.9
Nc1ncnc2c1nc(N1CCCCC1)n2C1OC(CO)C(O)C1O (stereo unspecified),.,.,-4,-5,3,.,3.1
COc1cccc(CNc2ccc([N+](=O)[O-])cc2C)c1,-16,7,-1,-4,5,4570,3.7
Cc1ccc(CNS(=O)(=O)c2ccc3oc(C(=O)O)c(C)c3c2)cc1,-12,8,0,7,10,11064,2.2
COc1ccccc1N1CCN(C(=S)Nc2ccc(S(=O)(=O)N3CCOCC3)cc2)CC1,-27,3,-3,5,8,3485,2.0
Cc1ccccc1OCc1nnc2c3cnn(C)c3ncn12,-56,1,6,9,7,4359,7.8
CCOC(=O)C1(C(F)(F)F)N=C(c2cccnc2)OC(N2CCCCC2)=N1 (stereo unspecified),-18,6,1,7,5,2087,2.9
COC(=O)c1cc(-n2cccc2)ccc1N1CCOCC1,-2,0,4,-8,-11,6008,2.3
CC1(C)SC2C(NC(=O)Cc3ccccc3)C(=O)N2C1C(=O)O (stereo unspecified),.,.,99*,4,0,.,100*
CON=CCC(=O)c1ccc(-c2ccccc2)cc1,.,.,101*,2,3,.,32
CCOC(=O)Nc1ccc2c(c1)N(C(=O)CCN(CC)CC)c1ccccc1S2=O (stereo unspecified),6,11,5,4,11,3747,1.6
COCCN(Cc1cc2cc3c(cc2nc1Cl)OCO3)C(=O)c1ccc(C)cc1,-16,8,8,12,6,2007,3.3
CN(C)c1nc(N)c2ncc(=S)[nH]c2n1,-17,-3,2,-6,-4,5195,3.6
CC(=O)c1c(C)[nH]c(C)c1C(C)=O,-7,-5,0,3,8,5435,1.7
C=CCSc1nnc(NC(=O)c2cccc(S(=O)(=O)N3CCOCC3)c2)s1,.,3,-3,10,13,10710,8.0
O=C(Nc1cccc(F)c1)NC1(C(=O)N2CCC(O)CC2)CCCCC1,-15,-1,5,3,2,5763,2.4
CN1CCC(=O)N([C@H](CSc2ccc(Br)cc2)Cc2ccccc2)CC1,2,-3,.,.,.,3028,.
N#CCc1nn(Cc2ccc(F)cc2)c(=O)c2ccccc12,10,-5,-2,2,13,4160,5.9
COc1ccccc1N1CCN(N=C(C)c2ccccc2O)CC1,.,.,3,0,1,.,5.2
COc1ccc(S(=O)(=O)N2CCN(C(=O)CCNC(=O)c3ccccc3Cl)CC2)cc1,-17,.,1,1,-2,2856,0.2
COC(CNC(=O)Cc1c(C)nc2c(-c3ccccc3)c(C)nn2c1C)OC,-43,6,4,8,12,4689,-1.1
CC(NC(=O)C(Cc1ccccc1)n1cccc1)c1ccccc1 (stereo unspecified),-10,15,9,14,6,5407,10
COc1cccc(-n2cc3c(c2-c2ccccc2)c(=O)n(C)c(=O)n3C)c1,-28,3,-1,.,.,4143,-3.5
COc1ccc(N=C2SC(C(N)=O)CC(=O)N2Cc2ccc3c(c2)OCO3)cc1 (stereo unspecified),3,14,1,4,4,4562,1.4
CC(=NOCC(=O)Nc1ccc(OC(F)(F)F)cc1)c1ccc2c(c1)OCCO2,.,.,44,-1,-6,.,-11
O=C(Cn1cnc2ccccc21)NN=C/C(Br)=C/c1ccccc1,.,.,-7,5,-4,.,-0.7
O=C(O)Cn1c(SCc2cccc3ccccc23)nc2ccccc21,-22,2,-5,14,8,3930,5.1
N#C/C(=C/c1ccc(O)c([N+](=O)[O-])c1)C(=O)Nc1ccccc1,-30,-14,14,.,.,2310,28
O=C(c1ccco1)N1CCN(CC(=O)N2c3ccccc3CCc3ccccc32)CC1,-11,-2,5,10,15,4017,0.4
C=CCNCCCOc1ccc(Cl)cc1Br,-17,6,9,11,9,8621,1.2
Cc1cc(C)cc(NC(=O)CSc2nnc(NC(=O)C3CC3)s2)c1,-7,-5,9,3,1,6558,9.0
O=C(Nc1ccc2c(c1)OCCO2)Nc1ccc2c(c1)OCO2,-14,18,-3,5,12,2122,0.3
CCn1c(C(=O)NC(C)c2ccc3c(c2)OCCO3)cc2sccc21 (stereo unspecified),-12,8,1,8,11,4955,2.8
COC(=O)/C(N=Nc1cccc(C(F)(F)F)c1)=C(\C)O,-6,6,.,.,.,2804,.
Nc1nonc1-n1nnc(C(=O)NN=Cc2ccccc2Cl)c1COc1ccc(F)cc1,.,.,-26,-11,-1,.,6.7
COc1cccc(-c2cc3nc4c(c(NCC(C)(C)CN(C)C)n3n2)CCCC4)c1,-13,-15,7,9,19,5649,-6.7
CCC(C)(CCNC(=O)Cc1ccccc1)c1ccccc1OC (stereo unspecified),-39,-5,2,1,-7,3861,-3.1
Cc1noc(C)c1CSc1ccc2ccccc2n1,-6,14,1,11,4,20444*,17
CC1CCCN(c2ccc(N)cc2C(N)=O)C1 (stereo unspecified),-28,-3,-4,7,16,1934,4.6
NC(=O)[C@@H]1CCCN1Cc1nc(-c2ccccc2)no1,-25,8,4,-3,10,3942,11
Cc1cc(C(=O)NP(=O)(N2CC(C)OC(C)C2)N2CC(C)OC(C)C2)c(C)n1C1CC1 (stereo unspecified),-34,6,1,-6,5,2502,4.4
COc1ccc([N+]([O-])=Cc2ccoc2)cc1,.,.,1,-8,-9,.,3.1
COc1ccc2c(c1)c(C(=O)CNc1nc(C)cs1)c(C)n2C,-11,-9,-6,.,.,4541,6.8
COc1ccc(-n2cnnc2SCC(=O)N2CCN(c3ccccc3)CC2)cc1,-17,0,6,25,8,2457,-6.5
N#Cc1ccc(OCC(=O)NN=C2CC(c3ccccc3)Oc3ccccc32)cc1 (stereo unspecified),.,.,-8,-2,-1,.,-5.6
O=C(NCCNc1ccccc1[N+](=O)[O-])c1cc(F)c(F)cc1Cl,-17,-2,-2,13,-1,3179,2.5
Cc1ccc(C(=O)NN2C(=O)C3C4C=CC(C5CC45)C3C2=O)cc1 (stereo unspecified),-21,2,-3,-1,6,3926,7.5
CCOC(=O)C1C2COc3cc(OC)ccc3C2N2C(=O)CN(C)C(=O)[C@@]12C (stereo partly specified),.,.,4,22,6,.,5.4
CCCOC(=O)NC1C(NC(=O)OCCC)N(C)C(=O)N1C (stereo unspecified),-3,2,0,.,.,2893,0.0
CCOc1ccccc1NC(=O)c1cc(C(=O)c2cc(OC)ccc2O)coc1=N,-9,-2,-9,13,4,2962,2.0
COc1ccc2cc(C=NNC(=O)CSCc3ccc([N+](=O)[O-])cc3)c(Cl)nc2c1,.,.,-1,9,-1,.,14
O=C(Nc1ccc(C(F)(F)F)cc1)c1ccc(NC(=O)C2CCCO2)cc1 (stereo unspecified),-2,-1,-3,2,1,3707,5.1
CCC(C(=O)N1CCN(S(C)(=O)=O)CC1)c1ccccc1 (stereo unspecified),-19,-1,14,8,9,20841*,5.6

# Other results follow.
SMILES,PrP 5UTR inh,BJeLR lethal,Sa ugtP lethal,Mtb hypoxia rep,Mtb hypoxia rep growth,Bead autofluor,Sa RN4220 lethal
NS(=O)(=O)c1ccc(CNC(=O)c2cccnc2Cl)cc1,-27,6,1,-5,2,5457,-2.4
CC(C)c1ccc(CN(C(=O)c2cc3ccccc3oc2=O)C2CCS(=O)(=O)C2)cc1 (stereo unspecified),-30,1,6,11,7,21498*,9.0
CC1CN(Cc2nc3ccccc3c(=O)[nH]2)CC(C)O1 (stereo unspecified),-13,-3,-3,-3,7,4486,2.6
COc1cc(/C=C/C(=O)Nc2cc(C(F)(F)F)ccc2Cl)cc(OC)c1OC,-19,-3,-6,.,.,2915,-4.1
Cc1ccc(NC(=O)[C@H](Cc2ccccc2)NC(=O)[C@@H]2Cc3ccccc3CN2)c(C)c1,-10,8,4,12,-1,5076,0.6
O=C(CCc1c[nH]c2ccccc12)OCC(=O)N1CCN(S(=O)(=O)c2ccccc2)CC1,-12,-8,11,5,2,5222,1.8
CCOC(=O)C1=C(COC(=O)CCOc2ccc(C)cc2)NC(=O)NC1C (stereo unspecified),-23,-6,-1,-5,-7,?,3.7
Cc1cc2oc(=O)cc(COC(=O)c3n[nH]c4ccccc34)c2cc1C,-37,-3,-9,.,.,2436,6.0
CC(C)Nc1nnc(SCc2cc(=O)n3ccsc3n2)s1,-26,-19,6,-4,8,4438,4.7
COc1ccc(NC(=O)Nc2nnc(Cc3ccc(F)cc3)s2)cc1,-9,7,-2,-5,-12,3107,-1.6
CC(C)CN(C(=O)c1cc2ccccc2o1)c1c(N)n(CC(C)C)c(=O)[nH]c1=O,-5,-7,2,17,7,2245,4.3
COc1ccc(S(=O)(=O)NNC(=O)Nc2ccc(C)cc2)c(OC)c1,-25,-7,6,1,5,4445,2.4
CCc1nnc(NC(=O)CCC(=O)NC2CCCCC2)s1,-18,5,1,10,2,3041,4.6
CCN(CC)C(=O)CC(c1ccc2c(c1)OCO2)c1c(OC)cc(OC)c2ccc(=O)oc12 (stereo unspecified),-17,-1,-5,7,7,3758,2.2
CCOC(=O)CC(NCc1ccc(OC)c(OCC)c1)c1ccc(C)cc1 (stereo unspecified),-1,0,-1,-4,6,3731,5.7

# Brought forward from above: five entries, then new ones.
SMILES,PrP 5UTR inh,BJeLR lethal,Sa ugtP lethal,Mtb hypoxia rep,Mtb hypoxia rep growth,Bead autofluor,Sa RN4220 lethal
CC(C)CN(C(=O)c1cc2ccccc2o1)c1c(N)n(CC(C)C)c(=O)[nH]c1=O,-5,-7,2,17,7,2245,4.3
COc1ccc(S(=O)(=O)NNC(=O)Nc2ccc(C)cc2)c(OC)c1,-25,-7,6,1,5,4445,2.4
CCc1nnc(NC(=O)CCC(=O)NC2CCCCC2)s1,-18,5,1,10,2,3041,4.6
CCN(CC)C(=O)CC(c1ccc2c(c1)OCO2)c1c(OC)cc(OC)c2ccc(=O)oc12 (stereo unspecified),-17,-1,-5,7,7,3758,2.2
CCOC(=O)CC(NCc1ccc(OC)c(OCC)c1)c1ccc(C)cc1 (stereo unspecified),-1,0,-1,-4,6,3731,5.7
CN(C)c1cc[n+](CC(=O)Nc2cc(C(F)(F)F)ccc2Cl)cc1,-3,16,5,2,-2,8021,6.6
O=C(Nc1ccccc1)N1CCCC(CNS(=O)(=O)Cc2ccccc2)C1 (stereo unspecified),-8,4,0,14,-6,5058,-0.8
CCOc1ccc(CC2NCCc3cc(OCC)c(OCC)cc32)cc1OCC (stereo unspecified),-2,2,9,6,17,4745,-2.6
COc1cc(/C=C/C(=O)c2ccc(C)c([N+](=O)[O-])c2)cc(OC)c1O,-16,4,-5,17,11,2014,4.1
Cc1cc(C)c(OCC(=O)NCC2COc3ccccc3O2)c(C)c1 (stereo unspecified),-12,.,6,25,9,2959,3.8
Cc1ccsc1CN(C)C(=O)CN1C(=O)NC2(CCCCC2C)C1=O (stereo unspecified),-21,.,6,10,5,7612,6.2
CCOc1ccc(N2C(=O)C3CC(C)=C(C)CC3C2=O)c([N+](=O)[O-])c1 (stereo unspecified),-8,1,2,-4,3,11265,6.0
CCC(C)NC(=O)c1ccc(CNS(=O)(=O)c2ccc3c(c2)C(C)(C)C(=O)N3C)cc1 (stereo unspecified),-17,4,8,3,3,5110,-3.3
CCCCCC(=O)Nc1ccc(N2CCN(S(C)(=O)=O)CC2)cc1,-22,-1,6,2,0,9571,-0.6
S=c1[nH]nc(-c2cc(-c3ccccc3)n[nH]2)n1N=C/C=C/c1ccccc1,.,.,-20,-1,12,.,5.8
